Bioassay records: PubChem, National Center for Advancing Translational Sciences (NCATS)
MARV entry inh – blocks Marburg virus binding to or entry into cells; Marburg virus pseudotyped entry inhibition, cell reporter; control for the full effect not named in the record; about a third of the inactives were read at about 46 µM; AID 540276; actives 1.8% (n = 300,000); Potency, µM (highest dose often 37.8 µM), for the others: at the highest dose activity change, negative = inhibition, most hits filed as inhibitors; active = well fitted inhibition curve with a large enough effect; inconclusive = small, poorly fitted or top-dose-only effect, or effect the other way; inactive = flat fitted curve, though single readings scatter; tested in HEK293 cells; about a fifth of its hits are not listed in these tables; also: % is scaled to controls: 0 for no effect and ±100 for the full control effect; luciferase read-out
2A StopGo – lowers the luciferase signal of an FMDV 2A StopGo reporter; human cells with a luciferase reporter of 2A StopGo recoding; control for the full effect not named in the record; Potency, µM (highest dose often 57.9 µM), for the others: at the highest dose signal change, negative = less light; actives 1.2% (n = 410,000); active = well fitted falling curve with a large enough effect; inconclusive = small, poorly fitted or top-dose-only effect; inactive = no such curve, though single readings can be large or run the other way; tested in HEK293T cells; also: % is scaled to controls: 0 for no effect and ±100 for the full control effect; nearly all actives have a fitted effect of over 45% in size; luciferase light after 4 h
Cruzain inh noDet – blocks cruzain activity in detergent-free assay. P25779. actives 2.3% (n = 200,000). Potency, µM, for inactives: max response, negative = inhibition, most hits filed as inhibitors. purified cruzain, Z-FR-AMC fluorescence, no detergent;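 also: plate controls were enzyme without inhibitor for no effect and buffer without enzyme for full effect; nearly all actives have a fitted effect of over 40% in size; top concentration of the series not given in the record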
Target sequence (P25779 123-467 limits assumed): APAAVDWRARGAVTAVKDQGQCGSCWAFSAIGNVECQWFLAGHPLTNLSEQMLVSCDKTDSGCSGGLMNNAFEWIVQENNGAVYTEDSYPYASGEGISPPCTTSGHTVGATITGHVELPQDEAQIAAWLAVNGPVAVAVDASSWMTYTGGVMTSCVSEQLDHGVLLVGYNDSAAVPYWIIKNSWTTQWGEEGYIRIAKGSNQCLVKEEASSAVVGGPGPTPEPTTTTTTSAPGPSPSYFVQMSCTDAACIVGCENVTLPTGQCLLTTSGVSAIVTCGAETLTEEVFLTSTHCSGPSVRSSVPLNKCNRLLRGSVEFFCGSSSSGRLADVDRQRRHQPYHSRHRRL
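Detergent-free condition (0.00005% Triton X-100) in acetate buffer pH 5.5 with DTT. 1.5 nM enzyme and compound were pre-mixed 15 min, then 2 uM Z-FR-AMC substrate added; reaction progress from fluorescence change between first and third reads (60 s).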
Lassa entry inh – Lassa virus entry inhibition. Lassa virus pseudotype entry inhibition, cell reporter; control for the full effect not named in the record. Potency, µM (highest dose often 37.9 µM), inactives show at the top dose activity change, negative = inhibition, most hits filed as inhibitors. actives 1.2% (n = 300,000); active means well fitted inhibition curve with a large enough effect; inconclusive means small, poorly fitted or top-dose-only effect, or effect the other way; inactive means flat fitted curve, though single readings scatter; tested in HEK293 cells; also: % is scaled to controls: 0 for no effect and ±100 for the full control effect; nearly all actives have a fitted effect of over 50% in size; luciferase read-out
Cruzain Triton – cruzain (T. cruzi) inhibition with detergent | purified cruzain, Z-FR-AMC fluorescence, 0.01% Triton | Potency, µM, for inactives: max response, negative = inhibition, hits mostly inhibitors | P25779 | AID 1478 | actives 0.43% (n = 200,000);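 also: plate controls were neutral wells for no effect and buffer without enzyme for full effect; nearly all actives have a fitted effect of over 40% in size; top concentration of the series not given in the record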
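In this qHTS format, compounds are incubated with 1.5 nM cruzain for 15 min at room temperature before 2 uM Z-FR-AMC is added. Release of AMC is followed at 360/450 nm, and progress is taken as the 60 s fluorescence difference.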
RE007 growth inh – less growth of the S. pombe RE007 Vpr strain; S. pombe RE007 Vpr strain, BacTiter-Glo ATP luminescence, 24 h; control for the full effect not named in the record; Potency, µM (series often up to 92.2 µM), for inactives: at the top dose activity change, negative = less growth; actives 0.21% (n = 360,000); active = well fitted falling curve with a large enough effect; inconclusive = small, poorly fitted or top-dose-only effect; inactive = no such curve, though single readings can be large or run the other way;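 also: % is scaled to controls: 0 for no effect and ±100 for the full control effect; nearly all actives have a fitted effect of over 50% in size; the assay follows cell death caused by Vpr and the record does not say whether a fall means rescue or toxicity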
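Fission yeast RE007 carrying one integrated HIV-1 vpr copy, seeded at OD 0.01 in PMG+AL medium with 23 nL pinned compound. Grown 24 h at 30 degrees; viability read by BacTiter-Glo luminescence after 5 min.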
NS1 inh – inhibitors of influenza NS1 protein function; S. cerevisiae slowed by influenza A NS1, growth recovery by OD600; Potency, µM (highest dose often 46.1 µM), for the others: top-dose activity, positive = more growth; actives 0.4% (n = 270,000); active means well fitted rising curve with a large enough effect; inconclusive means small, poorly fitted or top-dose-only effect; inactive means no such curve, though single readings can be large or run the other way; also: nearly all actives have a fitted effect of over 50% in size
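In this qHTS, NS1 from influenza A is expressed in budding yeast, where it slows growth. Cells are switched from glucose to 2% galactose medium (pH 6.0, -URA), treated with compound, and growth recovery is read at OD600.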
SARS PLpro yeast – SARS-CoV PLP inhibition in yeast | S. cerevisiae expressing SARS-CoV PLpro, growth rescue; control for the full effect not named in the record | Potency, µM (top dose mostly 32.9 µM), without a hit: at the highest dose activity, positive = growth rescue | actives 0.19% (n = 330,000) | AID 485353; active means well fitted rising curve with a large enough effect; inconclusive means small, poorly fitted or top-dose-only effect; inactive means no such curve, though single readings can be large or run the other way; also: 0% is about no effect; nearly all actives have a fitted effect of over 55% in size; growth read by luminescence after 48 h
* marks the source's active call; other numbers are inactive results; ? = inconclusive; . = not tested or not shown; [ ] = another dose, or the depositor's remark. Unless noted, calls follow the shape of the dose curve; as a rule, active = well fitted curve in the direction sought with a large enough effect; inconclusive = small, poorly fitted or top-dose-only effect, or another doubt; inactive = no such curve, though single readings can be large; an effect the other way counts as inactive or inconclusive. Potency is read from the fitted curve at half-maximal effect.

SMILES	MARV entry inh	2A StopGo	Cruzain inh noDet	Lassa entry inh	Cruzain Triton	RE007 growth inh	NS1 inh	SARS PLpro yeast
CCOc1cc(C#N)c(NC(=O)c2cccnc2)cc1OCC	?	0%	-2%	?	4.0%	-8%	1%	3%
Nc1ccc(C(=O)OCc2nc3ccccc3s2)cc1	?	18%	.	7%[46.1 µM]	.	-2%	.	-11%
Cc1cccc(/C=N/NC(=O)c2cc(Br)ccc2OCc2ccccc2)n1	?	-20%	.	?	.	1%	-15%	-3%
Cc1c(Cl)cccc1NC(=O)CSc1nc(=O)[nH]c2c1CCCC2	.	-17%	1%	-3%[46.1 µM]	-0.9%	.	.	.
COc1ccc(-c2ccc(C#N)c(OC(=O)c3c(Cl)cccc3Cl)n2)cc1	16%	-22%	?	?	28µM*	-9%	-13%	.
COc1cccc(CN2C[C@]34C=C[C@@H](C[C@@H]3S2(=O)=O)O4)c1	.	7%	.	.	.	0%	-3%	2%
CCOC(=O)C(C)Oc1cccc2c(=O)n(CC(=O)N3CCc4ccccc43)ccc12 (stereo not drawn)	.	-22%	?	.	-6.3%	-2%	4%	7%
O=C(NC1(C(=O)NC2CCCC2)CCCCC1)c1ccc2c(c1)OCO2	?	1%	?	?	-1.2%	-5%	-10%	1%
CCCCc1cc(=O)oc2c(C)c(OCC(=O)NCc3ccccn3)ccc12	.	-8%	.	.	.	13%	10%	0%
CC(OC(=O)Cc1ccc(F)cc1)C(=O)NCc1ccc2c(c1)OCO2 (stereo not drawn)	?	9%	.	7%	.	-7%	.	-3%
COCCn1c(Br)nc2c1c(=O)n(C)c(=O)n2C	13%[46.1 µM]	15%	.	11%[46.1 µM]	.	-11%	4%	-1%
O=C(CSc1nc2cc(C(=O)O)ccc2c(=O)n1-c1ccc(F)cc1)Nc1ccc(F)c(F)c1F	.	-26%	.	.	.	4%	14%	4%
CC1=NOC(=O)/C1=C\c1ccc(-c2ccc(Br)cc2)o1	?	-48%	.	?	.	?	.	-26%
N#Cc1ccc(Oc2ncccn2)cc1	-2%[46.1 µM]	6%	.	-4%[46.1 µM]	.	-8%	.	.
COc1cccc(Cn2c(CNC(=O)C(C)C)nc3cccnc32)c1	.	-14%	-14%	28%[46.1 µM]	-0.8%	.	.	.
CC(=O)C1=C(O)C(=O)N(Cc2cccnc2)C1c1ccccc1Cl (stereo not drawn)	4%	7%	3%	-7%	-1.3%	11%	2%	4%
CCN(Cc1ccccc1)C(=O)CCc1nc(-c2ccc(C)cc2)no1	0%	?	30%	-25%	-2.0%	-8%	-94%	-10%
COc1ccc2ccccc2c1C1NC(=O)c2ccccc2N1 (stereo not drawn)	-9%	-27%	.	?	.	5%	.	.
CCOc1ccc(-c2ccc(C=O)o2)c([N+](=O)[O-])c1	3%	-5%	-6%	-1%	-11%	-13%	-49%	4%
Cc1ccc(C(=O)CSc2nc(C(C)C)nc3ccccc23)cc1	-7%[46.1 µM]	23%	.	39%[46.1 µM]	.	4%	3%	-4%
COc1ccc(NC(=O)CN(C)C(=O)c2ccc(S(=O)(=O)Nc3ccccc3C)cc2)cc1	1%	-23%	.	-27%	.	?	.	-6%
O=C(Nc1ccc(NC(=O)c2cc3ccccc3o2)cc1)c1ccccc1	.	-13%	3.2µM*	5%[46.1 µM]	-0.8%	.	.	.
Cc1oc2ccc(O)c(CN(C)Cc3ccccc3)c2c1C(=O)Nc1cccc(Cl)c1C	?	?	?	?	-12%	.	.	.
COc1ccc(NC(=O)COC(=O)CCCc2c[nH]c3ccccc23)cc1OC	-7%	-4%	-1%	13%	-5.8%	1%	-3%	-1%
CC(=O)OC1=CN(Cc2ccccc2)S(=O)(=O)c2ccccc21	8%[46.1 µM]	-3%	-3%	-18%[46.1 µM]	-7.5%	.	.	.
CNC(=O)NC(=O)COC(=O)c1n[nH]c2ccccc12	-1%[46.1 µM]	-7%	.	-12%	.	-16%	0%	0%
O=C(NCCC(=O)N1CCN(c2ccc(F)cc2)CC1)c1ccco1	18%	-2%	.	1%	.	-6%	.	-3%
O=C1COc2ccc(C(=O)c3ccccc3C(=O)NCc3ccco3)cc2N1	18%[46.1 µM]	3%	0%	?	0.0%	10%	6%	3%
COc1ccc(S(=O)(=O)Nc2ccccc2C(=O)N2CCOCC2)cc1Cl	-1%[46.1 µM]	15%	.	1%[46.1 µM]	.	-10%	7%	?
OCC1(CCc2ccccc2)CCN(Cc2ccc3nsnc3c2)CC1	32%[46.1 µM]	-9%	.	-7%	.	-6%	-1%	0%
CSc1nsc(SCC(=O)Nc2ccc(F)cc2)n1	0%[46.1 µM]	9%	.	1%[46.1 µM]	.	-3%	-24%	-3%
CCCCCNC(=O)C(=O)C1C(=O)Nc2ccccc21 (stereo not drawn)	.	1%	.	.	.	1%	-78%	1%
Cc1nc(-c2coc3cc(OCC(=O)O)ccc3c2=O)cs1	?	?	-16%	?	3.0%	-28%	7%	-4%
Cc1cc(-c2nnc(SCC(=O)Nc3nc(-c4ccccc4)cs3)o2)no1	.	-6%	.	.	.	3%	?	0%
COc1ccc(NC(C)C(=O)Nc2ccc(C#N)cc2)cc1Cl (stereo not drawn)	20%	?	-6%	-4%	0.2%	-10%	-6%	3%
CCOc1cc2[nH]c(=O)n(CCCCCC(=O)NC(C)CC)c(=O)c2cc1OCC (stereo not drawn)	.	-10%	4%	24%[46.1 µM]	3.9%	.	.	.
CC(=O)c1cccc(NC(=O)NC(C)c2ccc3c(c2)OCO3)c1 (stereo not drawn)	.	-4%	.	.	.	4%	1%	2%
O=C(c1ccc(-c2ccccc2)cc1)N1CCN(c2ccccn2)CC1	?	0%	.	-18%[46.1 µM]	.	-2%	.	-3%
Cc1ccc(SCC(=O)NNC(=O)C2CCCCC2)cc1	5%	24%	-9%	15%	-0.2%	-2%	11%	-3%
Cc1cc(C)cc(NC(=S)NC2CC3CCCC(C2)N3C2CCCC2)c1 (stereo not drawn)	.	-22%	.	.	.	-2%	3%	0%
S=C(Nc1ccc2cn[nH]c2c1)Nc1ccc(Cl)cc1Cl	.	11%	.	.	.	1%	0%	1%
CCCCn1c(Cc2ccccc2)nnc1SCC(=O)Nc1cc(C)on1	?	-3%	-5%	?	-1.0%	-10%	-2%	-3%
CCCCSCCCNC(=O)C1CCN(Cc2nc(-c3ccc(CC)cc3)oc2C)CC1	-13%[46.1 µM]	-21%	-8%	?	0.8%	.	.	.
CCOc1ccc(S(=O)(=O)Nc2ccc(C(=O)N3CC(C)OC(C)C3)cc2)cc1 (stereo not drawn)	12%	3%	.	?	.	2%	.	-10%
O=C(NCCCN1CCN(c2ccccc2)CC1)c1sc2ncccc2c1-n1cccc1	.	-20%	13%	1%[46.1 µM]	-1.0%	.	.	.
Cc1ccc(N=C2SCCCN2C(=O)c2ccco2)cc1Cl	?	11%	-2%	-11%	0.0%	-12%	10%	-24%
O=C(Cn1nc2ccccc2n1)N/N=C/c1cc(Cl)cc([N+](=O)[O-])c1O	?	.	.	-2%[46.1 µM]	.	-11%	.	3%
COc1c(Cl)cc(Cl)cc1C(=O)Nc1cccc2cccnc12	?	-14%	-4%	6%[46.1 µM]	4.0%	.	.	.
COc1ccc(CNS(=O)(=O)c2ccc3c(c2)NC(=O)C(C)S3)cc1 (stereo not drawn)	.	0%	.	.	.	-3%	7%	1%
CCc1ccc(CCC(=O)Nc2ncc(Cc3ccccc3Cl)s2)o1	?	-21%	?	?	2.8%	5%	-2%	-6%
CC(C)(C)c1ccc(C(=O)NN2CCOCC2)cc1	.	-10%	.	.	.	12%	5%	0%
Cc1cccc(NC(=O)CSc2nnc(-c3ccccc3)n2N)c1C	8%	5%	7%	10%	0.3%	31%	10%	-19%
O=C(NCc1ccco1)c1cccnc1-c1nc2ccccc2s1	-1%	-7%	-12%	20%	-8.5%	25%	-14%	-13%
O=C(COC(=O)c1c(F)cccc1F)c1ccc[nH]1	13%[46.1 µM]	27%	.	?	.	-14%	-5%	-2%
FC(F)Oc1ccccc1C1CC(c2ccc(Br)s2)Nc2ncnn21 (stereo not drawn)	-24%	-41%	-5%	4%	-3.1%	-7%	-61%	-6%
Cc1ccc(NC(=O)Nc2c(C)n(C)n(-c3ccccc3)c2=O)c(Cl)c1	?	7%	-3%	24%[46.1 µM]	0.3%	.	.	.
Cc1cc(C)c2nc(C)cc(N/N=C/c3ccc(O)cc3)c2c1	?	0%	.	?	.	-8%	-15%	0%
O=C(Cn1c(C(F)(F)F)nc2ccccc21)Nc1ccccc1C(=O)O	?	-2%	.	?	.	-4%	-3%	3%
CN(c1ccccc1)c1nc(N)c(C#N)c(CC#N)c1C#N	-7%	?	-2%	11%	-6.0%	-1%	13%	-8%
NC(=O)[C@@H]1CC2(CC(c3cccc(NC(=O)COc4ccc(Cl)cc4)c3)=NO2)CN1C(=O)c1ccccc1 (stereo partly drawn)	.	-19%	.	.	.	-3%	0%	0%
Following part
SMILES	MARV entry inh	2A StopGo	Cruzain inh noDet	Lassa entry inh	Cruzain Triton	RE007 growth inh	NS1 inh	SARS PLpro yeast
COc1cc(CCC(=O)OCC(=O)Nc2ccccc2C(C)C)cc(OC)c1OC	?	0%	7%	14%	-1.9%	-9%	0%	15%
CCCS(=O)(=O)Nc1cc(C(F)(F)F)ccc1OCCOC	1%	5%	2%	-3%	2.9%	9%[3.69 µM]	?	-3%
COc1ccc(C)c2sc(N3CCCC3)nc12	?	-14%	7%	7%	-0.7%	-23%	-60%	3%
COc1cc2c(c(OC)c1O)-c1ccc(OC)c(=O)cc1C(NC(=O)C(F)(F)F)CC2 (stereo not drawn)	?	-10%	.	?	.	0%	.	.
CCSc1nnc(NC(=O)CCc2ccccc2)s1	2%	.	?	-10%	4.0%	3%	-6%	5%
CC(=O)NNC(=O)CSc1nnc(-c2ccccc2)c(-c2ccccc2)n1	.	-11%	.	.	.	-5%	11%	3%
CCOC(=O)CNC(=O)CSc1ccc2nnc(-c3ccc(F)cc3)n2n1	6%[46.1 µM]	4%	.	0%	.	-16%	.	0%
